Screening data (PubChem)
HNF4A DNA FP = change in binding of human HNF4A to DNA, primary screen, biochemical, fluorescence polarization, FITC-DNA. 1 h. activity change, % at 10 µM. actives 0.3% (n = 360,000). AID 1224865, 2016; in the data active = activity change above about 30%, passing the limit was not always enough;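 note: controls were the assay level and a saturating level of protein; the project sought stronger binding though the title names inhibitors; some compounds called inactive have numbers as strong as hits; positive values seem to mean higher polarization but the record does not say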
Target sequence (P41235 whole entry, looked up): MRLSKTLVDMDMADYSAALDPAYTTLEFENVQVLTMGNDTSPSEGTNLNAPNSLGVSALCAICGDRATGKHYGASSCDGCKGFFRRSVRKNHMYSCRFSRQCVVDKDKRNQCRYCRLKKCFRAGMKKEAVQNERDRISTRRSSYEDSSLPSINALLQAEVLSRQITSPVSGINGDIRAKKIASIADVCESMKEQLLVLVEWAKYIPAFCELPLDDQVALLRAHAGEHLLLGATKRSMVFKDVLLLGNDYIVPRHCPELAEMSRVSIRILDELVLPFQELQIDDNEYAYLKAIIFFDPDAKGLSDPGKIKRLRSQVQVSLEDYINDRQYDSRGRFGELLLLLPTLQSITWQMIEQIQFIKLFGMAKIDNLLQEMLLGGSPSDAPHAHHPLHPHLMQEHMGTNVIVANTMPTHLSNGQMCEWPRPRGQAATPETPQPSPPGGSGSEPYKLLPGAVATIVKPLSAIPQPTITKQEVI
rRNA inh HTS = reduced GFP signal of wild-type E. coli, primary screen, bacterial rRNA inhibitor project, GFP/RFP fluorescence, OD600, single point; E. coli WT GFP vs humanized-ribosome RFP mutants, 24 h; stronger effect = lower value; DMSO median 0, no signal -100; GFP signal change (wild-type ribosome), % (concentration not given with the values); actives 1.6% (n = 350,000);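 active = significant combined selectivity score with lowered wild-type GFP, culture density cut under 30%, mutant RFP and density less affected; inactive = any of these conditions unmet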; note: one replicate is shown; some compounds called inactive have numbers as strong as hits
AF4-AF9 inh = inhibitors of AF4 peptide binding to AF9, primary screen, biochemical, AlphaScreen, biotin-AF4 peptide, FLAG-AF9, single point | inhibition, % at 10 µM | AID 651704, 2012 | actives 0.47% (n = 350,000);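 active = every replicate reaching a set inhibition limit, whatever the replicate mean, cut at about 25% in these data; inconclusive = mean inhibition reaches that limit but some replicates miss it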;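 note: 0% = plate neutral control median and 100% = total signal loss; the record names both 10 and 1 µM as test concentration; the first replicate is given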
Target sequence (P42568 whole entry, looked up): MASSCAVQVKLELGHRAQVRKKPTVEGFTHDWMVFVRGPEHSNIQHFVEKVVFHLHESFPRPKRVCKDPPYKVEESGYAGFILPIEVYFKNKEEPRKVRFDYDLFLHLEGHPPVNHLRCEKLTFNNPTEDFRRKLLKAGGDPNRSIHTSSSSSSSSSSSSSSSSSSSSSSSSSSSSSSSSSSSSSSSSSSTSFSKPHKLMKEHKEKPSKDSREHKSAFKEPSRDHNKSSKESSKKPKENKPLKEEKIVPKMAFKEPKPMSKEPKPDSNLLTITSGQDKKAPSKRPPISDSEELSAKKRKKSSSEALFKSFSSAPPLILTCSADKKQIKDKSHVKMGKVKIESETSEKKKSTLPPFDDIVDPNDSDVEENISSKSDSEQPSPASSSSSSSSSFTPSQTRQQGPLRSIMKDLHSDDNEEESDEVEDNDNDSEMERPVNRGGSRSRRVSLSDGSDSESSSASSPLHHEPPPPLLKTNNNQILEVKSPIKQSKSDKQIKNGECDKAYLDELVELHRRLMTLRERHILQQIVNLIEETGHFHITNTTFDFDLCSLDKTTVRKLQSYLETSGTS
E coli growth = E. coli growth inhibition, primary screen, OD600; Escherichia coli growth, 23 h; stronger effect = lower value; OD600 absorbance (concentration not given with the values); actives 0.21% (n = 330,000); AID 1053175, 2014;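 active = OD600 absorbance below the run mean of sample wells minus 3.6 SD, in any replicate, cut at about 0.56 in these data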;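 note: stock transfer was 300 nL into about 60 µL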
ALR inh = inhibitors of human ALR sulfhydryl oxidase, primary screen, biochemical, H2O2 detection, HRP-luminol luminescence, single point. AID 485317, 2010. purified ALR, DTT oxidation. actives 3.8% (n = 290,000). inhibition, % (no concentration beside the values). FAD-linked sulfhydryl oxidase ALR (Homo sapiens), P55789;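 active = mean and each replicate at 75% or more; inconclusive = only one of the two met; inactive = neither met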;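 note: stock transfer was 7.5 nL into about 7.5 µL; 0% = neutral wells and 100% = wells with inactivated enzyme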
FGF22 binding = binders of human FGF22 protein, primary screen, FGF22 synaptogenesis inhibitor project, biophysical, thermal shift, single point | Fibroblast growth factor 22 (Homo sapiens), Q9HCT0 | AID 651658, 2012 | recombinant FGF22 thermal shift, SYPRO orange fluorescence; percent of sucrose octasulfate shift, DMSO zero | calls only at 9.99 µM | actives 1.5% (n = 340,000);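 active = melting point raised past a set limit in the mean and every replicate; inconclusive = no clear call; three in four hits are not shown here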
Vif TR-FRET = inhibitors of Vif binding to APOBEC3G peptide, primary screen, biochemical, TR-FRET, GST-Vif 1-94, biotin-A3G peptide, dose response retest (AID 1117319); Virion infectivity factor (Human immunodeficiency virus type 1 group M subtype B (isolate …; one-dose inhibition, %; IC50 in µM for titrated hits; TR-FRET GST-Vif / biotin-A3G peptide binding; higher % means a stronger effect; test concentration not given here; strong numbers were not always called active; actives 0.57% (n = 260,000);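 active = above the screen mean plus three standard deviations and confirmed in dose response; inconclusive = results disagree or hit not tested in dose response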;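 note: Vif residues 1-94 fused to GST binding biotinylated APOBEC3G peptide 110-148; 0% = full assay without inhibitor and 100% = GST in place of GST-Vif; retest series ran down from 100 µM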
rRNA inh HTS OD600 = also measured in rRNA inh HTS; calls as there; OD600 change, %; measured here: OD600 growth;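 optical density of the mix in the first replicate; 0 = DMSO median and -100 = no signal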
rRNA inh HTS RFP = also measured in rRNA inh HTS; calls as there; RFP signal change, %; measured here: RFP humanized mutant strains;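 first replicate; 0 = DMSO median and -100 = no signal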
Active calls of the source: *; i = inactive; ? = inconclusive; . = not tested or not shown.

SMILES | HNF4A DNA FP | rRNA inh HTS | rRNA inh HTS OD600 | rRNA inh HTS RFP | AF4-AF9 inh | E coli growth | ALR inh | FGF22 binding | Vif TR-FRET
COCC(=O)N1[C@@H](C#N)[C@@H](c2ccccc2)[C@@H]1CO | . | 9 | 15 | -0.6 | -1.5 | . | . | i | .
Cc1ccccc1C(=O)Nc1nnc(SCC(=O)NC2CC2)s1 | 4.4 | 1 | 8 | -3.0 | 2.5 | 0.72 | 7 | i | -8%
CCOC1=CC(=O)OC(c2ccccc2)C1 (centres undefined) | -2.8 | 5 | 2 | -4.4 | -1.4 | 0.68 | . | i | -9%
C[C@H](CO)N1C[C@H](C)[C@H](CN(C)C(=O)C2CC2)OCc2ccccc2-c2c(n(C)c3ccccc23)C1=O | . | -2 | 0 | -0.2 | -3.1 | . | . | i | .
O=C(Nc1cc2c(cc1Cl)OCCCO2)c1ccco1 | -3.9 | . | . | . | . | 0.63 | 2 | . | -2%
Oc1ccccc1N1CCN(C(c2ccccc2)c2ccccc2)CC1 | 3.0 | -9 | -29 | -0.8 | -1.1 | 0.71 | -11 | i | .
Cn1c(=O)c(=O)n(C)c2cc(S(=O)(=O)NCCc3ccccc3)ccc21 | -2.2 | 7 | 5 | 3.3 | . | 0.68 | -2 | . | 1%
COc1cccc(-n2nnnc2SCC(=O)NCc2ccc3c(c2)OCO3)c1 | -9.1 | -21* | -9.2* | 2.2* | -35 | 0.62 | 1 | i | 4%
CC(=O)NC(c1ccc(F)c(F)c1)c1nc(-c2cccc(C(F)(F)F)c2)cs1 (centres undefined) | -0.2 | 0 | 10 | 0.9 | 6.8 | . | . | i | .
O=C(NNC(=O)c1cccc(Br)c1)Nc1ccc(Cl)cc1 | -4.0 | -3 | 22 | 2.2 | -3.2 | 0.7 | 6 | i | 13%
Cc1nn(CCC#N)c2nc(-c3ccccc3)cc(C(F)(F)F)c12 | -3.9 | . | . | . | . | 0.74 | -3 | . | -7%
O=C(CN(C(=O)CCC(=O)Nc1nccs1)c1cccc(F)c1)NCC1CCCO1 (centres undefined) | 1.6 | . | . | . | . | 0.73 | -2 | . | 0%
C[C@H]1CN([C@@H](C)CO)C(=O)c2cc(Br)cnc2O[C@@H]1CN(C)C(=O)c1cccnc1 | . | 10 | 16 | -2.8 | -0.8 | . | . | i | .
CC(C)C#Cc1ccc([C@@H]2[C@@H](C#N)N(C(=O)CN(C)C)[C@@H]2CO)cc1 | . | 1 | 11 | 2.0 | -0.5 | . | . | i | .
CC(C)c1ccc(C2(C)NC(=O)N(CC(=O)NC3(C#N)CCCC3)C2=O)cc1 (centres undefined) | 7.0 | -1 | 3 | -2.3 | 1.7 | 0.69 | -2 | i | .
C[C@H]1CN([C@@H](C)CO)C(=O)Cc2cc(NC(=O)Nc3ccc(C(F)(F)F)cc3)ccc2O[C@H]1CN(C)C(=O)Nc1ccc(C(F)(F)F)cc1 | . | -1 | 14 | -3.6 | -12 | . | . | i | .
C[C@@H]1CCCCO[C@H](CN(C)S(=O)(=O)c2ccccc2)[C@@H](C)CN([C@@H](C)CO)C(=O)c2cc(NS(=O)(=O)c3cn(C)cn3)ccc2O1 | . | 0 | -7 | 1.7 | -0.7 | . | . | i | .
CN1C(=O)c2cc(NC(=O)Cc3cccs3)ccc2OC[C@@H]2O[C@H](CC(=O)NCCCN3CCOCC3)CC[C@@H]21 | . | 2 | 11 | -2.1 | -1.6 | . | . | i | .
CCOc1ccc(CC(=O)NC2CC(C)(C)N(C)C(C)(C)C2)cc1OCC | 0.3 | 7 | 13 | 1.5 | 3.0 | 0.72 | -3 | i | -1%
CCC1(c2ccccc2)NC(=O)N(CC(=O)Nc2ccc3c(C)cc(=O)oc3c2)C1=O (centres undefined) | 1.5 | -10 | -8 | 4.3 | -2.1 | 0.66 | -16 | i | .
Cn1cccc1/C=C1\SC(=S)N(Nc2ccccc2)C1=O | 58* | -1 | 2 | 19 | 7.7 | 0.62 | 1 | i | .
Cc1cc(C)n(-c2nc(N(C)C)nc(N(C)C)n2)n1 | 0.7 | . | . | . | . | 0.7 | 0 | . | -2%
Cn1c(-c2sc3ccccc3c2Cl)n[nH]c1=S | 3.4 | . | . | . | . | 0.69 | 97* | . | 9%
COc1ccc(/C(O)=C2/C(=O)C(=O)N(c3ccccn3)C2c2ccc(OC)cc2)cc1 (centres undefined) | -1.1 | 1 | 6 | -1.9 | 8.9 | 0.69 | . | i | -15%
COc1ccc(NC(=O)N(C)C[C@@H]2Oc3c(NC(=O)C4CC4)cccc3C(=O)N([C@H](C)CO)C[C@@H]2C)cc1 | . | 4 | 5 | 0.4 | -1.7 | . | . | i | .

(further entries)
SMILES | HNF4A DNA FP | rRNA inh HTS | rRNA inh HTS OD600 | rRNA inh HTS RFP | AF4-AF9 inh | E coli growth | ALR inh | FGF22 binding | Vif TR-FRET
COc1cc(NC(=O)c2ccccc2)c(OC)cc1NC(=O)CSc1[nH]c(=O)cc(C)c1C#N | -6.5 | -2 | -2 | 0.1 | -1.3 | 0.71 | -19 | i | .
Cc1ccc(OCCCNC2CCCC2)cc1 | -0.8 | 1 | 1 | -1.8 | -0.4 | 0.72 | -7 | i | 10%
Cc1ccc(-c2csc(CC(N)=O)n2)cc1 | -3.0 | 4 | -8 | 0.1 | -1.7 | 0.72 | 91* | i | 4%
CO[C@H]1CN(C)C(=O)c2ccc(NC(=O)Nc3ccccc3F)cc2OC[C@@H](C)N(C)C[C@H]1C | . | 0 | 4 | -1.1 | -2.0 | . | . | i | .
CN(CC(=O)Nc1ccccc1C(=O)N1CCCC1)S(=O)(=O)c1ccc(Cl)cc1 | -0.7 | . | . | . | . | 0.73 | -9 | . | 5%
O=C(Nc1nccs1)C1CCN(S(=O)(=O)c2cnc[nH]2)CC1 | 1.6 | . | . | . | . | 0.68 | . | . | 25%
CC(C)(C)C(=O)COC(=O)C1CC(=O)N(c2ccccc2)C1 (centres undefined) | 1.4 | 13 | 23 | 4.1 | -1.1 | 0.71 | . | i | .
CC(=O)Nc1ccc(OS(=O)(=O)c2cc(Cl)ccc2C)cc1 | -3.2 | -44 | -63 | -6.8 | -1.2 | 0.68 | . | i | 3%
NC(=O)c1ccccc1Nc1nc2nc3ccccc3c(=O)n2cc1Br | . | . | . | . | . | 0.64 | -1 | . | 24%
CC(NC(=O)/C=C/c1ccco1)c1nc2ccccc2n1Cc1c(Cl)cccc1Cl (centres undefined) | 2.3 | 11 | 18 | 5.0 | 5.2 | 0.75 | -16 | i | .
Cc1ccc(-n2c3c(cc(C(=O)O)c2=O)C(=O)CC(C)(C)C3)cc1 | -3.7 | . | . | . | . | 0.67 | -2 | . | 2%
CCc1nc2c(OCc3ccc(OC)cc3)cccn2c1N(C)C(=O)c1ccc(OC)cc1 | -1.8 | -2 | -9 | 3.0 | 4.6 | . | . | i | .
C[C@@H]1CCCCO[C@@H](CN(C)C(=O)Nc2ccc3c(c2)OCO3)[C@H](C)CN([C@@H](C)CO)C(=O)c2cc(NS(=O)(=O)c3ccccc3)ccc2O1 | . | -12 | 0 | -2.1 | 2.3 | . | . | i | .
C[C@@H]1CN([C@@H](C)CO)C(=O)c2c(c3ccccc3n2C)-c2ccccc2CO[C@@H]1CN(C)C(=O)Nc1cccc(F)c1 | . | 1 | 12 | -0.6 | 1.5 | . | . | i | .
O=c1c2c3c(sc2nc2n1CCCC2)CCC3 | -2.3 | . | . | . | . | 0.68 | -14 | . | 7%
Cc1[nH]c2ccc(Br)cc2c(=O)c1CN1CCCCC1 | 4.8 | . | . | . | . | 0.72 | -6 | . | 3%
COc1ccccc1CCNC(=O)CN1C(=O)c2ccccc2S1(=O)=O | -4.3 | 5 | 7 | 0.1 | -0.2 | 0.65 | -6 | i | 1%
c1ccc(N=Nc2cn[nH]c2-c2ccco2)cc1 | 2.0 | -35 | -59 | -6.1 | 17 | 0.67 | . | i | 9%
COc1ccc(C(CNC(=O)CNC(=O)c2cc(OC)c(OC)c(OC)c2)N2CCOCC2)cc1 (centres undefined) | -2.2 | -1 | -6 | 3.6 | -4.9 | 0.72 | . | i | 7%
C=CCN(C(=O)C1=NN(C2CCS(=O)(=O)C2)C(=O)CC1)c1nc(-c2ccc([N+](=O)[O-])cc2)cs1 (centres undefined) | 2.6 | -33 | -35 | -0.8 | 7.0 | 0.69 | -22 | i | .
CCOC(=O)CSc1ccc(-c2nc3ccccc3[nH]2)cn1 | 3.3 | . | . | . | . | 0.7 | -12 | . | -3%
O=C(c1ccc(S(=O)(=O)N2CCOCC2)cc1)N1CCN(c2ccccc2)CC1 | 4.1 | . | . | . | . | 0.68 | . | . | 6%
COc1ccc(F)cc1C(=O)C1CCCN(Cc2cccn2-c2cccnc2)C1 (centres undefined) | -1.6 | 7 | 4 | -2.5 | 14 | 0.69 | . | i | -5%
O=C(CCc1ccccc1)Nc1cc2c(cc1Cl)OCCO2 | 1.9 | . | . | . | . | 0.68 | -1 | . | .
O=C(Nc1cccc(F)c1)N(Cc1ccc(Cl)cc1)CC(O)C(F)(F)F (centres undefined) | 0.2 | . | . | . | . | 0.68 | 2 | . | 5%

An excerpt from above, reduced to rRNA inh HTS RFP.
mol,rRNA inh HTS RFP
C[C@@H]1CN([C@@H](C)CO)C(=O)c2c(c3ccccc3n2C)-c2ccccc2CO[C@@H]1CN(C)C(=O)Nc1cccc(F)c1,-0.6
Cc1ccc(OCCCNC2CCCC2)cc1,-1.8
C[C@@H]1CCCCO[C@@H](CN(C)C(=O)Nc2ccc3c(c2)OCO3)[C@H](C)CN([C@@H](C)CO)C(=O)c2cc(NS(=O)(=O)c3ccccc3)ccc2O1,-2.1

Later entries.
SMILES | HNF4A DNA FP | rRNA inh HTS | rRNA inh HTS OD600 | rRNA inh HTS RFP | AF4-AF9 inh | E coli growth | ALR inh | FGF22 binding | Vif TR-FRET
CCN(C(=O)COC(=O)c1ccc(Cl)c(S(=O)(=O)N2CCCCC2)c1)C1CCS(=O)(=O)C1 (centres undefined) | -1.5 | 1 | -1 | -0.7 | ? | 0.68 | 36 | i | .
CN1CCN(c2ccccc2/C=C2/C(=O)Nc3ccccc32)CC1 | 4.0 | 1 | -2 | 4.3 | 8.2 | 0.63 | . | i | 6%
CCCOC(=O)c1cccc(NC(=O)C(C)(C)C)c1 | -3.5 | . | . | . | . | 0.71 | -7 | . | 10%
CC(=O)Nc1cc[n+](C(C)C(=O)c2ccccc2)cc1 (centres undefined) | 0.9 | 3 | 3 | -2.2 | -1.3 | 0.7 | -15 | i | .
COc1ccc(CN2CCCCCC2)cc1Br | 3.7 | -3 | 9 | -0.4 | -0.1 | 0.61 | 0 | i | .
CN(Cc1cccc(F)c1)C(=O)c1ccccc1Sc1ccccc1C#N | 0.1 | -8 | -20 | 3.4 | 0.5 | 0.69 | -12 | i | 1%
COc1ccccc1NC(=O)COC(=O)c1[nH]c(=O)[nH]c(=O)c1N | -0.5 | . | . | . | 1.5 | 0.69 | -12 | i | .
O=S(=O)(Nc1ccn(-c2ccccc2)n1)c1ccc(Br)cc1 | 0.9 | -46* | -20* | -2.9* | 3.1 | 0.66 | -3 | i | 3%
Cc1sc(NC(=O)c2ccco2)c(C(c2cccnc2)N2CCN(CCO)CC2)c1C (centres undefined) | -0.9 | 9 | 5 | 1.0 | 3.4 | 0.65 | 8 | i | 2%

The list is partial (hit frequency here may not be typical).
